# Source: PubChem (several laboratories)
# Arbovirus anti = arbovirus infection inhibition; arbovirus infection cell-based antiviral screen; inhibition, % at 10 µM; 0.37% of 200,000 active; AID 1251;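 active = inhibition from about 30%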;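 note: bluetongue infection of BSR cells; cell survival read as ATP light after 72 h; 0% = infected wells without compound and 100% = uninfected wells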
# Mtb bLac sens = beta-lactam sensitization of Mtb H37Rv; M. tuberculosis H37Rv growth with meropenem, percent inhibition; hits of this screen are not shown here; inhibition, % at 25 µM; 0.27% of 330,000 active;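 active = about 74% or more and at least 40 points above the plate without the antibiotic, then above 30% in a dose series; inconclusive = first-round hits that could not be retested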;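 note: growth measured after seven days incubation then overnight dye step; 0% = bacteria only wells and 100% = bacteria with antibiotic; twin plates without the antibiotic show which effects depend on it; some results filed as inactive read as strong as hits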
# RecA intein inh = inhibitors of M. tuberculosis RecA intein splicing. P9WHJ3. 0.75% of 290,000 active. inhibition, %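 (about 9 µM by stock and volumes)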. cell-free RecA intein splicing, fluorescence. AID 2221; in the data active = inhibition above about 30%; inconclusive = no clear call, values can overlap the other calls;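 note: 0% = vehicle wells and 100% = reference inhibitor control wells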
# Target sequence (P9WHJ3 whole entry, looked up): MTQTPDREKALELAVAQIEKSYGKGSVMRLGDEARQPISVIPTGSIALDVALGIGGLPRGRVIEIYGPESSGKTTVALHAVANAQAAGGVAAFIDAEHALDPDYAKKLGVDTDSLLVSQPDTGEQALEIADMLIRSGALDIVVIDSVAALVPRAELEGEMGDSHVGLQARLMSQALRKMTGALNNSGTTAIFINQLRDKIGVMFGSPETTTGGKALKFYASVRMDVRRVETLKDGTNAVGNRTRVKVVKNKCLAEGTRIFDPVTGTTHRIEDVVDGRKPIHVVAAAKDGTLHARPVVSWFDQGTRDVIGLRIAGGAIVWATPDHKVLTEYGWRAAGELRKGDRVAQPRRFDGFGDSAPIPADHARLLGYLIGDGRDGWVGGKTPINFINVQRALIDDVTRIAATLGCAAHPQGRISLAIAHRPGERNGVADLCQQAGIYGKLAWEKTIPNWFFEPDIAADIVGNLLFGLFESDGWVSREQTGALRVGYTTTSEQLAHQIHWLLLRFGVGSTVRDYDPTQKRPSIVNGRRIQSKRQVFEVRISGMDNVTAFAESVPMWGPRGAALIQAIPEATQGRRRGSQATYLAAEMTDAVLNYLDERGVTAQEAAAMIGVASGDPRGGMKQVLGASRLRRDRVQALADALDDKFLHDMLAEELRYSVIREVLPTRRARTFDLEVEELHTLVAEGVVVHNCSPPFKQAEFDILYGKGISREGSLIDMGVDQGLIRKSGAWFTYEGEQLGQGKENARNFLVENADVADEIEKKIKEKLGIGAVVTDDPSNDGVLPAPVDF
# YopH PTP inh = inhibitors of Yersinia enterocolitica YopH tyrosine phosphatase | fluorescence Ex485/Em525 | inhibition, %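 (about 10 µM by stock and volumes)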 | 0.16% of 140,000 active | AID 898;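 active = inhibition of 50% or more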;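 note: controls were vehicle for no effect and minimum signal wells for full effect; inactives centre near -20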
# Mtb H37Rv = M. tuberculosis H37Rv growth inhibitors, H37Rv strain (AID 1626) | M. tuberculosis H37Rv growth inhibition; higher % means a stronger effect | inhibition, % at 10 µM; hits with a dose series show IC50 in µM | 0.95% of 220,000 active;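 active = confirmed in a dose series; inconclusive = inhibition above 80% but not taken into the dose series; inactive = below 80% or under 30% at every dose of the series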;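 note: bacteria incubated seven days before Alamar blue readout; 0% = bacteria only wells and 100% = bacteria with antibiotic wells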
# Arbovirus anti repeat = recorded beside Arbovirus anti, whose call it bears; inhibition, %; measured here: 10K subset replicate screen; many hits read low in the repeat;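 first of two repeat runs on a subset; 0% = infected and 100% = uninfected wells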
# Active calls of the source: *; ? = inconclusive; / = not tested or not shown.
SMILES,Arbovirus anti,Mtb bLac sens,RecA intein inh,YopH PTP inh,Mtb H37Rv,others
CCOC(=O)N1CCN(C(=O)Cc2cccc3ccccc23)CC1,-2,-6,2.2,/,-4%,
CSCCC(NS(=O)(=O)c1cccs1)C(=O)NCc1ccccc1 (stereo not drawn),5,-1,0.5,-25,-7%,
CCCCn1c(N)c(N(CCOC)C(=O)COC(=O)CSc2cc(C)c3ccccc3n2)c(=O)[nH]c1=O,/,2,-1.7,/,/,
O=C(c1ccc(N2CCN(C3CC(=O)N(Cc4cccs4)C3=O)CC2)cc1)c1cccnc1 (stereo not drawn),5,-2,-0.8,/,-1%,
C[C@@H](C(=O)N[C@@H](Cc1ccccc1)C(=O)O)n1nnc2ccccc2c1=O,/,-3,-2.6,/,-8%,
O=C(CSC1CC(=O)N(CCc2ccccc2)C1=O)Nc1ccc(Br)cc1 (stereo not drawn),-8,0,2.6,-21,9%,
O=C(NCC(c1cccs1)N1CCOCC1)c1cc([N+](=O)[O-])cc([N+](=O)[O-])c1 (stereo not drawn),-1,100,0.7,-17,-9%,
O=C(Nc1ccccc1)c1n[nH]c(Cn2cncn2)n1,6,-5,1.2,-14,-3%,
O=[N+]([O-])c1ccc(CSc2nc3ccccc3[nH]2)cc1,13,5,5.8,-24,11%,
COC(=O)c1cn(S(=O)(=O)c2ccccc2)c2ccccc12,/,-3,3.6,/,/,
Cc1cc(C)n2nc(Sc3ncccc3[N+](=O)[O-])nc2n1,/,-3,-4.7,/,5%,
O=C(CSc1nnc(COc2ccc(Cl)cc2)o1)NC1CCCCC1,/,-3,-3.4,/,/,
COc1cccc(OC)c1C(=O)Nc1ccccc1C(=O)N1CCCC1,/,7,-1.4,/,/,
Fc1ccc(CNC(=S)Nc2ccc(Cl)cc2Cl)cc1,12,5,2.4,-21,9%,
Cn1nc(C(F)(F)F)c(-c2ccc(Br)cc2)c1NC(=O)c1cccnc1,/,-6,3.2,/,>100µM*,
CC(C)CC(=O)Nc1nnc(SCC(=O)NCC2CCCO2)s1 (stereo not drawn),/,?,-0.4,/,/,
CC1CCCCC1n1c(-c2cccnc2)n[nH]c1=S (stereo not drawn),0,6,-2.6,/,1%,
CCN(CC)c1nc(N(CC)CC)[nH]c(=O)n1,/,-4,-0.6,-27,-2%,
CCc1nnc(NC(=O)CSc2ccc(Cl)cc2)s1,/,2,-2.4,/,/,
COCCn1c(SCC(=O)Nc2ccccc2C(F)(F)F)nc2ccccc2c1=O,/,5,-0.5,/,/,
COc1cc(NS(=O)(=O)c2ccc3c(c2)oc(=O)n3C)cc(OC)c1OC,-12,1,0.5,-37,3%,Arbovirus anti repeat=-9
COc1ccc(NC(=O)CN(c2c(C)cccc2C)S(C)(=O)=O)cc1,/,-5,1.4,/,/,
CCOC(=O)C1CCCN(C(=O)Cn2cccc2C(=O)c2ccccc2)C1 (stereo not drawn),-1,-1,-1.3,-41,-1%,
COC(=O)c1ccc(COC(=O)c2cc3ccccc3oc2=O)cc1,/,54,0.2,/,/,
Cc1oc2c(c1C(=O)NCc1ccccc1)CCCC2,3,-5,1.6,-37,-2%,
CCOc1ccccc1/C=C/c1onc(C)c1S(=O)(=O)N1CCC(C(=O)NC(C)(C)C)CC1,/,0,-0.1,/,/,
COc1ccc(O)c(C(=O)c2cc(C#N)c(=O)n(CC3CCCO3)c2)c1 (stereo not drawn),6,1,-2.9,-15,-4%,
O=C(O)c1nccnc1C(=O)N1CCN(c2ccccc2)CC1,-1,-2,-1.5,-42,1%,
O=C(CN1CCC(n2nnc3cc(F)ccc32)CC1)NCCc1nc2ccccc2[nH]1,0,-6,-0.2,-52,9%,
CC(=O)Nc1cccc(-c2nc3ccc(NC(C)=O)cc3s2)c1,-8,-5,-1.7,/,-3%,
Cc1ccc(OCCn2cc(/C=N/NC(=O)c3ccncc3)c3ccccc32)cc1,8,98,0.4,-20,?,
CCCCCCCCNc1ncnc2ccccc12,-45,18,9.7,-14,5%,
COc1ccc(C(=O)O)cc1NCc1ccc(C)s1,/,-1,-2.6,/,/,
CCOC(=O)N1CCN(C(=O)c2ccc(Cl)nc2)CC1,/,-4,-1.2,/,-1%,
CC1=Nc2cc(C(=O)NCC3CCCO3)ccc2Sc2ccc(Br)cc21 (stereo not drawn),/,-1,2.7,/,2%,
Nc1cc(N)cc(-c2nc3ccccc3[nH]2)c1,2,5,/,-40,2%,
CCOc1ccc(N=C2NC(=O)/C(=C/C(=O)OC)S2)cc1,16,-4,-0.2,-25,2%,
CCCCc1ccc(NC(=O)CSc2nnc(C)c(=O)n2N)cc1,/,80,2.9,/,/,
O=C(O)c1cc2c(=O)c3ccccc3oc2nc1C(F)(F)F,/,-6,-1.0,/,/,
Cc1ccc(S(=O)(=O)N(C)c2cc(S(=O)(=O)Nc3ccncc3)c(C)cc2C)cc1,5,-4,-2.1,-26,-4%,
COC(=O)c1ccccc1NC(=O)c1cc(OC)cc(OC)c1,-7,27,1.4,-116,0%,
Cc1ccc(S(=O)(=O)N2CCN(C(=O)c3ccc(-n4cncn4)c([N+](=O)[O-])c3)CC2)cc1C,/,-11,0.6,/,/,
Cc1ccccc1NC(=O)c1ccc(Nc2c([N+](=O)[O-])cc([N+](=O)[O-])c3ccccc23)cc1,17,3,11,-12,6%,
COc1cc(Br)cc(C2C3=C(CCCC3=O)N(c3ccc(F)cc3)C3=C2C(=O)CCC3)c1O,-12,-5,2.3,/,8%,
CCOc1ccc(-c2nc(N)ncc2-c2ccc(OC)cc2)c(O)c1,16,39,7.5,-27,20%,
O=S(=O)(N1CCCCCC1)N1CCN(S(=O)(=O)N2CCCCC2)CC1,7,2,-0.8,1,2%,
COc1ccc(-c2ccc3sc4ccccc4c(=O)c3c2)cn1,/,20,-3.2,/,-7%,
COc1ccccc1NC(=O)Cc1ccc(-c2ccccc2)cc1,/,12,6.9,/,/,
CCOC(=O)C1(CCc2ccccc2)CCN(C(=O)CCn2cnnn2)CC1,4,-2,-0.3,/,-1%,
CCOC(=O)N1CCN(C(=O)COCc2cc(-c3ccc4c(c3)OCO4)on2)CC1,/,?,-3.1,/,/,
Cc1cccc(N(CC(=O)N2CCN(c3ccc(F)cc3)CC2)S(C)(=O)=O)c1C,9,0,-0.6,/,-6%,
COc1c(/C=N/Nc2ccc(C(=O)O)cc2)c(CCN(C)C(C)=O)cc2c1OCO2,/,3,-2.7,/,10%,
O=C(O)c1ccc(Cl)c(S(=O)(=O)Nc2ccc3[nH]c(=O)[nH]c3c2)c1,/,26,-6.8,/,-7%,
NS(=O)(=O)c1ccc(CNC(=S)NC2CC2)cc1,0,-2,-2.0,/,-2%,
CCN1/C(=C/C=C/c2oc3ccc(-c4ccccc4)cc3[n+]2CC)Oc2ccc(-c3ccccc3)cc21,-28,95,-7.6,/,?,
Cc1cnn(CCC(=O)NNC(=S)Nc2ccccc2)c1,4,-9,-4.0,5,-1%,
COCCn1nnnc1C(c1cccc(C(F)(F)F)c1)N1CCN(Cc2ccccc2)CC1 (stereo not drawn),-2,-3,1.9,-1,2%,
CCN1CCN(c2ccc(S(=O)(=O)N3CCCCC3)cc2NC(=O)c2ccc(C)o2)CC1,/,0,-1.2,/,/,
C=CCOc1ccc(/C=C/C(=O)OCC(=O)N(C)CC(=O)Nc2ccccc2Cl)cc1,/,-5,-1.3,/,/,
O=C(CSc1nc2ncccc2[nH]1)NCc1ccco1,/,?,5.0,/,/,
# Further compounds.
SMILES,Arbovirus anti,Mtb bLac sens,RecA intein inh,YopH PTP inh,Mtb H37Rv,others
Cc1c(C(=O)Nc2ccc(S(=O)(=O)N(C)C3CCN(C)CC3)cc2)oc2c(Cl)cccc12,/,94,1.3,/,/,
COC(=O)Nc1ccc(S(=O)(=O)N2CCCC(C(=O)N3CCN(C)CC3)C2)cc1 (stereo not drawn),/,-9,0.7,/,-5%,
CCCCCCCSc1nc(N)cc(=O)[nH]1,0,50,-1.9,-8,/,
C1CN(c2nc(N3CCOCC3)nc(N3CCOCC3)n2)CCO1,/,-1,-2.0,/,-3%,
COC(=O)c1ccc(COc2ccccc2/C=C(\C#N)C(=O)Nc2c(C)cc(C)cc2C)cc1,-14,?,7.1,1,13%,
CC(=O)O[C@@H]1[C@@H](O)[C@@H](O)[C@H](Oc2c(-c3ccc(O)cc3)oc3c(CC=C(C)C)c(O)cc(O)c3c2=O)O[C@H]1C,/,-11,13,/,-6%,
O=c1[nH]c2ccccc2nc1/C=C/c1ccc(Cl)cc1,-5,-3,-4.0,/,-5%,
Cc1cc(C)cc(NC(=S)N2CCN(CCO)CC2)c1,1,5,1.3,-32,1%,
O=C(CCCOc1ccc(Cl)cc1Cl)NCCCO,-1,-8,1.3,-9,1%,
CCn1c(SCC(=O)c2ccc(F)cc2)nnc1-c1ccoc1C,8,-1,1.9,-14,-8%,
CC(C)(C)OC(=O)[C@H](Cc1ccccc1)NC(=O)c1nc[nH]c1C(=O)NCCCCCN,/,-7,0.4,/,/,
CCN(C(=O)CSc1nc2ccccc2c(=O)n1-c1cccc(C)c1)C1CCS(=O)(=O)C1 (stereo not drawn),2,-17,9.1,/,6%,
COCCCNC(=S)N1CCN(c2nc3ccccc3s2)CC1,1,-1,-1.2,/,-5%,
Cc1cc(C(=O)NNS(=O)(=O)c2ccc(F)cc2)nn1C(C)(C)C,/,-2,-0.8,/,-6%,
Cc1cc(O)ccc1C1(c2ccc(O)cc2C)OC(=O)c2ccccc21,-36,-1,16,-45,-7%,
Cc1cc(C)nc(NC(=O)Cc2ccc(Cl)cc2)c1,/,8,1.1,/,/,
C=CC[N+]1(CC#Cc2ccccc2)CCCC1,14,-3,2.4,/,-3%,
Cc1ccc(S(=O)(=O)NCC(C)NC(=O)CN2CCOCC2)cc1 (stereo not drawn),/,-1,-0.5,/,/,
CC(=O)Nc1cccc(NC(=O)C(C)N2c3cccc4cccc(c34)S2(=O)=O)c1 (stereo not drawn),/,1,0.8,/,/,
Cc1ccc(S(=O)(=O)N2CCN(Cc3ccccc3C(F)(F)F)CC2)cc1,8,-3,13,0,-6%,Arbovirus anti repeat=1
CC1=CC(C)(C)N(C(=O)CN2C(=O)c3ccccc3C2=O)c2ccc(C)cc21,-7,4,1.1,-2,2%,
C=CCOC(=O)C1=C(C)OC(N)=C(C#N)C1c1ccco1 (stereo not drawn),/,0,-1.5,/,-8%,
Cc1ccc(NC(=O)c2ccccc2-c2cc(C)no2)cc1,-2,97,0.7,/,27%,
Cc1nc2scc(-c3ccccc3)c2c(=O)n1N=C1C=CC(=O)C=C1,-32,/,27,/,6%,
O=C(Nc1ccon1)c1cc2c(s1)CCCCCC2,0,16,3.1,-8,4%,
O=C(C1=C[C@@H](C2CCCCC2)C[C@@H](OCc2ccc(CO)cc2)O1)N1CCN(Cc2ccccc2)CC1,-20,53,13,/,13%,
COc1ccc(OCC#CCN2CC(C)OC(C)C2)cc1 (stereo not drawn),5,-3,0.2,/,-3%,
CCOc1cccc2sc(NN)nc12,38*,/,/,/,10%,
O=C(NNC(=O)c1csc(-c2cccnc2)n1)Nc1ccc(Cl)cc1,/,-1,2.0,/,-4%,
CC(C)N1CCC(N2CCN(Cc3cccc4nonc34)CC2CCO)CC1 (stereo not drawn),-2,-5,-1.1,/,-5%,
COc1ccccc1C(=O)NNC(=O)CCN1C(=O)/C(=C\c2ccccc2)SC1=S,/,8,1.3,/,/,
O=[N+]([O-])c1ccc(S(=O)(=O)CC2CSc3nc4ccccc4n32)cc1 (stereo not drawn),0,3,2.3,-13,8%,
COc1ccc(N2CCN(C(=O)C3CCCO3)CC2)cc1 (stereo not drawn),5,10,-2.4,-2,-3%,
O=C(NC1CCN(Cc2ccccc2)CC1)c1cc(Br)c(Br)[nH]1,-4,-12,-1.3,/,9%,

# This is a subset (hit frequency here may not be typical).
